High-throughput results as filed in PubChem.
NPYLR7 agonist – mosquito NPYLR7 agonism; activation, % at 10 µM; AID 1259423; HEK293T NPYLR7/Galpha15, GCaMP6s calcium fluorescence; 270,000 tested, 0.15% active; in the data active = activation above about 40%;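 also: 0% = vehicle and 100% = reference agonist at the receptor; some compounds past the cut are filed as inactive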
NPYLR7 agonist max-min – also measured in NPYLR7 agonist; calls as there; activation, %; measured here: Max-Min RFU normalised activation; some inactives read as strong as hits;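 span of the calcium signal over five minutes; 0% = vehicle and 100% = native peptide agonist; compound fluorescence can raise it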
An asterisk follows results filed as active; & = joins results of further samples.

SMILES	NPYLR7 agonist	NPYLR7 agonist max-min
N#Cc1ccc(C(=O)N2CCN(Cc3cccc(-c4noc(-c5ccccc5)n4)c3)CC2)cc1	2	0
Cc1cc(C)n(-c2ccc(N(C)CCNS(C)(=O)=O)nc2)n1	2	0
Cc1ccccc1N=c1scc(-c2ccccc2)n1N1CCOCC1	3	-2
CCCCNC(=O)Cn1cnc(-c2ccc(OCC)cc2)cc1=O	8	-2
NC(CO)C(=O)NNCc1ccc(O)c(O)c1O (stereo not given)	-4&-3&1&1	-8&-9&-4&4
CCC(c1ccc(OC)cc1)N(CC)C(=O)Cc1cccnc1 (stereo not given)	11	9
CCN(CC)c1onc(-c2ccccc2)c1CN(CCOC)C(=O)c1ccccc1OC	-4	6
CCOc1cc(N2CCOCC2)c(OCC)cc1NC(=O)COc1ccc(C#N)cc1	-4	-9
O=C(Cc1ccc(F)cc1)N1CCCN(C(=O)CN2CCc3sccc3C2c2ccc(Cl)cc2)CC1 (stereo not given)	5	0
O=[N+]([O-])c1ccc(NN=Cc2ccc[nH]2)c([N+](=O)[O-])c1	6	3
O=C(CSC1=NS(=O)(=O)c2ccccc2N1)NCCCc1ccccc1	-1	-10
N#Cc1c(Cl)nsc1NCC(O)c1ccccc1C(F)(F)F (stereo not given)	7	4
O=C(NCc1ccccc1CS(=O)(=O)N1CCOCC1)c1cc(F)ccc1F	5	15
O=C(O)CCCCC1SCC2NC(=O)NC21 (stereo not given)	-10	-14
CCc1cc2c(Nc3cccc(C(=O)O)c3)nc(C(C)C)nc2s1	4	-2
COc1ccccc1CC(=O)N1Cc2ccccc2-c2ccccc21	17	10
CCn1nc(C)cc1C(=O)N(CCCN(C)C)c1nc2ccc(Cl)cc2s1	5	6
CC(N=C1NS(=O)(=O)c2ccccc21)c1ccc(F)cc1 (stereo not given)	-2	-3
O=C(C(Cc1ccccc1)c1ccccc1)N1CCC(n2c(=O)[nH]c3ccccc32)CC1 (stereo not given)	-6	-8
CCOCCCn1c(SCc2cc(F)ccc2C(F)(F)F)nc2cc(C(=O)OCC)ccc21	-5	-7
O=C(Cn1c2c(c3ccccc31)CCC2)NCc1cccs1	0	-2
O=C(NCCn1cc(SCC(=O)N2CCc3ccccc32)c2ccccc21)c1ccc(F)cc1	-1	-1
CC(C)CN1C(C2CCCC2)=NS(=O)(=O)c2cc(N)ccc21	17	6
CCOC(=O)c1c(NC(=O)CSc2nnnn2-c2ccccc2)sc2c1CCC(C)C2 (stereo not given)	-1	-3
CCn1c(C(O)c2ccccc2)n[nH]c1=O (stereo not given)	1	0
Cc1ccc(-c2ccnc(-c3ccc(F)c(CO)c3)n2)c(C)n1	3	1
CCOC(=O)c1cc(-c2cccc(NC(=O)c3ccc(OC)c(F)c3)c2)n(-c2cccc(C)c2)n1	20	11
CCN(CC)CCn1c2c(c(SCC(=O)Nc3ccc(C(=O)OC)cc3)nc1=O)CCCC2	-2	6
COC(=O)[C@H](Cc1ccc(OCc2c(Cl)cccc2Cl)cc1)N1C(=O)CCC(N2C(=O)c3ccccc3C2=O)C1=O (stereo not given in full)	-15	-19
CCOc1ccc(CC(=O)N2CCN(c3nnc(SCC(=O)NC)s3)CC2)cc1	-12	-19
Cc1[nH]nc2c1C(c1cccc([N+](=O)[O-])c1)C(C#N)C(=N)O2 (stereo not given)	2	-5
CC(C)N1CCN(C(=O)CCNC(=O)c2cccc3ccnn23)CC1	25	11
Cc1csc2nc(O)c(C(=O)NCC(C)O)c(=O)n12 (stereo not given)	-2	10
CC(c1nc(C2CC2)no1)N1CCC(Cc2cnn(C)c2)C1 (stereo not given)	-8	-8
N#Cc1cnn(C(=O)C2CC2c2cccc(C(F)(F)F)c2)c1N (stereo not given)	2&0	6&-2
CC(=O)Nc1nc(SCc2cccc(C)c2)[nH]c(=O)c1NC(=O)c1cccs1	-5	-4
CCN(CC)S(=O)(=O)c1cc(C(=O)N2Cc3ccccc3CC2C(=O)NC)ccc1Cl (stereo not given)	-1	-2
COc1ccccc1C1SC(C)C(=O)N1CCC(=O)NCc1ccco1 (stereo not given)	34	42
O=C(O)c1cccc(N2C(=O)CSC2c2ccccc2C(F)(F)F)c1 (stereo not given)	-2	-9
O/N=C\c1ccc(-c2ccc(O)c(F)c2)c(Cl)c1O	-10	-14
CN(C)c1ccc(C2NC(=O)NC2=O)cc1 (stereo not given)	6	5
CCCCCn1c(NCCCO)nc2c1c(=O)[nH]c(=O)n2C	4	3
CCOc1ccccc1NC(=O)NCC1CNCCOC1 (stereo not given)	7	5
Cc1noc(-c2cccs2)c1C(=O)NCCc1cccs1	-4	-1
COC(=O)C1C(=N)OC2=C(C(=O)CC(C)(C)C2)C1c1cccc(F)c1 (stereo not given)	-7	-14
CCCCn1c(SC2CCCCNC2=O)nc(C)c1C (stereo not given)	-22	-24
CC(C)c1[nH]n(-c2ccc(F)cc2)c(=O)c1C1=C(N2CCCC2)C(=O)N(Cc2ccc(F)cc2)C1=O	-11	-7
COc1ccc(/C=C/C(=O)N2CCCC(CO)(Cc3ccc(F)cc3F)C2)cc1 (stereo not given)	8	4
CCOc1ccc(-c2[nH]ncc2-c2nc(-c3cccs3)no2)cc1Cl	-1	-4
Cc1ccsc1CNC(=O)C1(C)CCN1C(C)C (stereo not given)	0	-2
COc1ccc(OCc2nc(-c3cn(C)nc3C)cs2)cc1	0	4
Cc1nc(C(C)C)cc(N(C)CC(C)N2CCOCC2)n1 (stereo not given)	21	13
NCc1csc(Nc2ccc(C(=O)NCCCO)cn2)n1	-6	-10
O=C(CCc1ccc2c(c1)OCO2)N1C[C@@H]2[C@@H]3CC[C@@H](C3)[C@@H]2C1	8	6
COc1ccc2c(c1)-c1sc(C(=O)NCCc3cccc(Cl)c3)cc1CC2	0	-5
O=C(N=C1N=C2C=CC(I)=CN2Cc2ccccc21)C12CCC(CC1)C2	1	1
CCOc1ccnc2c1c(=O)n(CC(=O)N(C(C)C)C(C)C)c(=O)n2C	-5	-7
CCCCCCNC(=O)Nc1ccc(S(=O)(=O)Nc2ccc(CCNC[C@H](O)COc3ccc(O)cc3)cc2)cc1	-9	-5
O=C(C1=C(O)C(=O)N(CCCn2ccnc2)C1c1cccc([N+](=O)[O-])c1)c1cccs1 (stereo not given)	1	0
COc1ccc(C(=O)C2CCCN(C(=O)c3cccs3)C2)cc1F (stereo not given)	-8	-11
Following part:
SMILES	NPYLR7 agonist	NPYLR7 agonist max-min
Cc1cc(C)n(CCCN(C)C(=O)C2CCCN(CC(N)=O)C2)n1 (stereo not given)	6	3
O=C1C2C3CC(C2C(=O)N1c1ccccn1)C1C3N=NN1c1ccc(Br)cc1 (stereo not given)	0	-3
CC(C)C(CNC(=O)Nc1ccc(S(N)(=O)=O)cc1)c1ccccc1 (stereo not given)	11	7
CC(=O)c1ccc(S(=O)(=O)NCCCn2nc(-c3ccncc3)ccc2=O)cc1	18	10
CN(C)c1ccc(S(=O)(=O)N(C)C)cc1NC(=O)CN1CCCC1	-3	-4
Cn1nc(C2CCN(C(=O)CCc3cccnc3)CC2)n(-c2ccccc2)c1=O	-4	-3
Cc1cnc(NCc2ccc(C(=O)N3CCCC3)cc2)nc1N(C)C	11	11
Cc1ccc(NC(=O)N(Cc2ccc(OS(C)(=O)=O)cc2)Cc2ccco2)cc1C	21	17
CN(c1ccccc1C(N)=O)S(=O)(=O)c1c(Cl)cc(Br)cc1Cl	3	1
O=C1N=c2ccccc2=C1c1sc(N2CCCCC2)nc1O	-2	7
CC(C)(C#N)c1ccc(NC(=O)c2cc(Cl)c[nH]2)cc1	11	4
COc1cc(-c2cccs2)cc2c1OCCN(Cc1noc(C3CC3)n1)C2	25	9
CO/N=C(\C(=O)N[C@@H]1C(=O)N2C(C(=O)O)=C(CSc3nc(=O)c(=O)[nH]n3C)CS[C@H]12)c1csc(N)n1	-20	-24
CC(=O)Nc1nnc(SCC(=O)c2ccc(Cl)c(C)c2)s1	15	27
CCCCNc1cc(CCC)nc2c3c(C)cc(C)nc3nn12	1	42
CC(Oc1ccccc1)C(=O)N1CCN(c2c(-c3ccccc3)cnc3ncnn23)CC1 (stereo not given)	29	24
CCCN(CC1CC1)C(=O)Cn1c(=CC(=O)C(C)(C)C)sc(=Cc2ccsc2)c1=O	-2	-3
CCC(C)NS(=O)(=O)c1cc2c3c(c1)CCN3C(=O)CC2 (stereo not given)	9	5
CC(=O)N1N=C(c2ccccc2)CC1C1=Cc2ccc(C)cc2NC1Cl (stereo not given)	-4	-11
Cc1ccc(-n2sc(=O)n(Cc3ccc(F)cc3)c2=O)cc1	-5	-7

Some of these compounds in order of formula weight, high to low.
SMILES	NPYLR7 agonist	NPYLR7 agonist max-min
CCCCCCNC(=O)Nc1ccc(S(=O)(=O)Nc2ccc(CCNC[C@H](O)COc3ccc(O)cc3)cc2)cc1	-9	-5
CO/N=C(\C(=O)N[C@@H]1C(=O)N2C(C(=O)O)=C(CSc3nc(=O)c(=O)[nH]n3C)CS[C@H]12)c1csc(N)n1	-20	-24
O=C(N=C1N=C2C=CC(I)=CN2Cc2ccccc21)C12CCC(CC1)C2	1	1
CCCN(CC1CC1)C(=O)Cn1c(=CC(=O)C(C)(C)C)sc(=Cc2ccsc2)c1=O	-2	-3
O=C1C2C3CC(C2C(=O)N1c1ccccn1)C1C3N=NN1c1ccc(Br)cc1 (stereo not given)	0	-3
Cc1ccc(NC(=O)N(Cc2ccc(OS(C)(=O)=O)cc2)Cc2ccco2)cc1C	21	17
CC(Oc1ccccc1)C(=O)N1CCN(c2c(-c3ccccc3)cnc3ncnn23)CC1 (stereo not given)	29	24
CC(=O)c1ccc(S(=O)(=O)NCCCn2nc(-c3ccncc3)ccc2=O)cc1	18	10
COc1ccc2c(c1)-c1sc(C(=O)NCCc3cccc(Cl)c3)cc1CC2	0	-5
Cn1nc(C2CCN(C(=O)CCc3cccnc3)CC2)n(-c2ccccc2)c1=O	-4	-3
COc1cc(-c2cccs2)cc2c1OCCN(Cc1noc(C3CC3)n1)C2	25	9
CC(=O)N1N=C(c2ccccc2)CC1C1=Cc2ccc(C)cc2NC1Cl (stereo not given)	-4	-11
CCOc1ccnc2c1c(=O)n(CC(=O)N(C(C)C)C(C)C)c(=O)n2C	-5	-7
CC(C)C(CNC(=O)Nc1ccc(S(N)(=O)=O)cc1)c1ccccc1 (stereo not given)	11	7
CN(C)c1ccc(S(=O)(=O)N(C)C)cc1NC(=O)CN1CCCC1	-3	-4
COc1ccc(C(=O)C2CCCN(C(=O)c3cccs3)C2)cc1F (stereo not given)	-8	-11
CC(=O)Nc1nnc(SCC(=O)c2ccc(Cl)c(C)c2)s1	15	27
Cc1cnc(NCc2ccc(C(=O)N3CCCC3)cc2)nc1N(C)C	11	11
Cc1cc(C)n(CCCN(C)C(=O)C2CCCN(CC(N)=O)C2)n1 (stereo not given)	6	3
Cc1ccc(-n2sc(=O)n(Cc3ccc(F)cc3)c2=O)cc1	-5	-7
COc1ccc(OCc2nc(-c3cn(C)nc3C)cs2)cc1	0	4
O=C1N=c2ccccc2=C1c1sc(N2CCCCC2)nc1O	-2	7
CCCCNc1cc(CCC)nc2c3c(C)cc(C)nc3nn12	1	42
CCC(C)NS(=O)(=O)c1cc2c3c(c1)CCN3C(=O)CC2 (stereo not given)	9	5
NCc1csc(Nc2ccc(C(=O)NCCCO)cn2)n1	-6	-10
Cc1nc(C(C)C)cc(N(C)CC(C)N2CCOCC2)n1 (stereo not given)	21	13
CC(C)(C#N)c1ccc(NC(=O)c2cc(Cl)c[nH]2)cc1	11	4
Cc1ccsc1CNC(=O)C1(C)CCN1C(C)C (stereo not given)	0	-2

Next entries follow:
SMILES	NPYLR7 agonist	NPYLR7 agonist max-min
CCOC(=O)N1CCC(NC(=O)Nc2cc(C(=O)N(C)C)ccc2C)CC1	6	8
CCc1nc(C#N)c(N2CCCCC2)o1	-2	13
C=CCCCCCCCCC(=O)NN	-13	-20
CCCCNC(=O)c1cn(C2CCCCC2)cc(C(=O)NC(c2cccnc2)C(F)(F)F)c1=O (stereo not given)	19	15
CC(C(=O)Nc1ccccc1C#N)N(C)Cc1ccc(F)cc1F (stereo not given)	5	5
CCOc1ccc(-c2cc(=O)n(C(C)C)cn2)cc1	-18	-19
Cc1cc(CNC(=O)CC2=CCCCC2)no1	-2	1
O=c1nc2oc3ccc4ccccc4c3cc-2c(=O)[nH]1	4	3
CC(C)Oc1cccc(NC(=O)C2(C)CCN(C(C)C)C2)c1 (stereo not given)	0	1
Cc1cc(-c2nn(-c3ccccc3F)cc2CN(C)Cc2ccon2)c(C)s1	3	2

A portion of the library, so the mix of outcomes need not match the whole.
